PINK1 expr mod – changes PINK1 expression. AID 624263. actives 0.2% (n = 410,000). Potency, µM (titrated, usually from 76.6 µM), without a hit: at the top dose activation (PINK1 increase), actives largely listed as activators. PINK1 immunofluorescence, high-content cytometry, 24 h; active = well fitted activation curve with a large enough effect; inconclusive = small, poorly fitted or top-dose-only effect; inactive = flat fitted curve, though single readings scatter; cell line not stated here;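 further: potency means the concentration at half of the fitted maximal effect; % of control where 0% means no effect; nearly all actives have a fitted effect of over 65% in size; a mitochondrial uncoupler was the plate control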
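Measures PINK1 amount and localization on or inside mitochondria by immunofluorescence. Stable cells get compounds at 5 concentrations for 24 hours before fixation and staining; CCCP controls included.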
D2 agonist – activates the human D2 dopamine receptor; P14416; DiscoveRx PathHunter D2 beta-arrestin, luminescence, 90 min; 100% = 57 uM dopamine signal; activation, % (no concentration beside the values); actives 0.084% (n = 360,000); in the data active = activation above about 40%; inconclusive = about 15% to 40%; inactive = below about 15%; further: compound concentration not given in the record; the text of the record calls up to 30% inactive
Target sequence (P14416 whole entry, looked up): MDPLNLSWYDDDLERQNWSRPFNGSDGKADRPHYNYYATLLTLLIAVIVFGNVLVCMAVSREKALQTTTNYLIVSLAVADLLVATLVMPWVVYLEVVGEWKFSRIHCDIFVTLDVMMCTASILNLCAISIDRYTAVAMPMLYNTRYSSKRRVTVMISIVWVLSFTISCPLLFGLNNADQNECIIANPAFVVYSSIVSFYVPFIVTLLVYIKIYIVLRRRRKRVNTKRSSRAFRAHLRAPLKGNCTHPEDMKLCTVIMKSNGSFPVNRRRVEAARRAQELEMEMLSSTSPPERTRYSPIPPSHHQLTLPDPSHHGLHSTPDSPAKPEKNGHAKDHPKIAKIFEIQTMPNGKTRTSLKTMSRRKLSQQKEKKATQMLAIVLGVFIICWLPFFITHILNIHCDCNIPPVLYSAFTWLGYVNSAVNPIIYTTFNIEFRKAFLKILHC
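Agonist mode: compounds alone added to overnight-plated D2 PathHunter cells for 90 min at 37 C, with 57 uM final dopamine (EC100) defining full response. Beta-arrestin recruitment detected by chemiluminescent reagent, read after 1 h at ambient temperature.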
gsp antag – gsp mutant antagonism; gsp-mutant cells, cAMP HTRF, 30 min; control for the full effect not named in the record; Potency, µM (doses to about 76.9 µM), for inactives: top-dose activity change, negative = inhibition, actives largely listed as inhibitors; actives 0.4% (n = 340,000); AID 624288; active = falling curve of any shape with a large fitted effect; inconclusive = falling curve, mostly with a smaller effect; inactive = flat or rising curve; cell line not stated here;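 further: intracellular cAMP measured with PDE inhibitor Ro 20-1724 present during compound exposure; potency means the concentration at half of the fitted maximal effect; on the % scale 0 is the no-effect control and ±100 the full control effect; nearly all actives have a fitted effect of over 65% in size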
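HTRF cAMP measurement after 30 min RT detection following 30 min, 37C compound treatment alongside […] (added as 300 uM solution) in G418-selected cells seeded at 2000/well and grown 16–24 h.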
ClpP mod – qHTS Assay for Activators of ClpP | AID 651965, 2013 | Potency, µM (highest dose often 57.5 µM), for the others: top-dose activity change, negative = active | ATP-dependent Clp protease proteolytic subunit (Bacillus subtilis (strain 168)), P80244 | actives 1.9% (n = 340,000) | purified B. subtilis ClpP, FRET peptide cleavage, 20 min; active = well fitted falling curve with a large enough effect; inconclusive = small, poorly fitted or top-dose-only effect; inactive = no such curve, though single readings can be large or run the other way; further: potency means the concentration at half of the fitted maximal effect; the source files actives as falling curves though it sought activators and does not explain the sign; nearly all actives have a fitted effect of over 65% in size; many hits overshoot -100%
Target sequence (P80244 whole entry, looked up): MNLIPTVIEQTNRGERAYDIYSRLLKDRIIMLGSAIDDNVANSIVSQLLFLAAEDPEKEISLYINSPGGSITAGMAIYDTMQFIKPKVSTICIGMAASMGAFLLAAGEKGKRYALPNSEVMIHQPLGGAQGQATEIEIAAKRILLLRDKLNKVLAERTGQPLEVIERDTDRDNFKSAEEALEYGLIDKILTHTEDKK
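FRET quenching reversal measured ClpP activation: 10 microg/mL B. subtilis ClpP at pH 8 with the FRET-FV decapeptide, read at 430 nm after 320 nm excitation. The 20-min minus 0-min signal was scaled between DMSO/no-enzyme wells and ADEP (5.8 microM final).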
gsp ag – agonists of gsp mutant (McCune-Albright syndrome). gsp mutant cells, cAMP HTRF, 30 min; control for the full effect not named in the record. AID 624287. Potency, µM (titrated, usually from 76.9 µM), for the others: at the top dose activation (cAMP increase), hits mostly activators. actives 0.13% (n = 340,000); active = well fitted activation curve with a large enough effect; inconclusive = small, poorly fitted or top-dose-only effect, or another doubt; inactive = no such curve, though single readings can be large or run the other way; cell line not stated here;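 further: phosphodiesterase inhibitor Ro 20-1724 added with compounds to block cAMP breakdown; potency means the concentration at half of the fitted maximal effect; nearly all actives have a fitted effect of over 60% in size; about a fifth of the inactives were tested at one dose only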
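Cells stably selected in G418 were plated at 2000/well, grown 16-24 hr, then given compounds in DMSO with the PDE inhibitor […] (300 uM solution added) for 30 min at 37C; cAMP was read by HTRF.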
Sfp inh – blocks B. subtilis Sfp PPTase activity | Q9F4F7 | Biochemical Sfp PPTase activity, qHTS | Potency, µM, for inactives: max response, negative = inhibition, actives largely listed as inhibitors | actives 3.5% (n = 310,000) | AID 1490; active means well fitted inhibition curve with a large enough effect; inconclusive means small, poorly fitted or top-dose-only effect, or another doubt; inactive means no such curve, though single readings can be large or run the other way;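 further: the enzyme is Sfp with the accession as filed and its product quenches rhodamine fluorescence; potency means the concentration at half of the fitted maximal effect; 0% = enzyme reaction without inhibitor and -100% = no enzyme wells; top concentration of the series not given in the record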
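Buffer: 50 mM Hepes-Na pH 7.6, 10 mM MgCl2, 0.01% Nonidet P-40, 0.01% BSA. Enzyme 15 nM, pre-exposed to compound 15 min; substrates then added and fluorescence change tracked over 30 min.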
Menin MLL FP FL – displaces fluorescein MLL peptide from human menin; Fluorescence polarization, fluorescein-MLL peptide displacement from menin; FP activity change, % at 61.4 µM; 290,000 tested, under 10 active; AID 1766; inconclusive = falling polarisation curve, or a change in total fluorescence; inactive = total fluorescence flat and polarisation flat or rising; no compound was filed as active; the % refers to the polarisation; negative = inhibition;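 further: % of control where 0% means no effect; inhibitors lower the polarisation; unlabelled MLL peptide was the positive control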
* marks the source's active call; other numbers are inactive results; ? = inconclusive; . = not tested or not shown; & = joins results of further samples; [ ] = remark or other dose. This is a random part of the collection, and some 5.1% of all compounds hit somewhere here.

mol,PINK1 expr mod,D2 agonist,gsp antag,ClpP mod,gsp ag,Sfp inh,Menin MLL FP FL
Cc1ccc(CNC(=O)CCCN2C(=S)NC(C)(C)CC2C)cc1 (centres undefined),-0.1%,0.1,10%,-2.6%,14%[15.4 µM],20%,0.0
COc1ccccc1N1CC(C(=O)OCc2nc(N)nc(Nc3ccccc3)n2)CC1=O (centres undefined),1.0%,-1.5,0%,0.5%,-1%,.,.
COc1ccccc1NS(=O)(=O)c1ccc(N/N=C/c2c(C)nn(-c3ccccc3)c2N2CCCC2)c([N+](=O)[O-])c1,1.0%,-6.1,-16%,?,1%[15.4 µM],16%,3.7
CC1=C(C(=O)Nc2ccccc2)C(c2ccccn2)n2nc(CCCO)nc2N1 (centres undefined),0.2%,-8.9,6%,0.9%,16%,?,1.7
O=C(NCc1ccco1)c1cccc(NC(=O)c2ccco2)c1,-2.5%[38.3 µM],-3.0,-2%,-2.1%,21%,1%,1.1
CSc1ccc(S(=O)(=O)N2CCC(C(=O)NCCCn3ccnc3)CC2)cc1,-0.4%,0.7,11%,1.7%,-30%,13%,.
COC(=O)c1cc(NC(=O)COC(=O)CCc2c[nH]c3ccccc23)cc(C(=O)OC)c1,5.4%,-5.6,-13%,40%,-1%,.,.
COc1ccc(-c2nn(-c3ccccc3)cc2/C=C/C(=O)O)cc1[N+](=O)[O-],9.4%,-2.6,8%,0.0%,-5%,12%,5.2
CC(C)(C)n1nc2c(c1NC(=O)Cc1ccc(F)cc1)CS(=O)(=O)C2,2.5%,2.6,3%,0.2%,8%,17%,-12
COc1ccccc1C=NNc1ccc([N+](=O)[O-])cn1,?,-1.9,-6%,-1.4%,10%[15.4 µM],.,.
CCCC(c1nnnn1Cc1ccco1)N1CCC(C(N)=O)CC1 (centres undefined),0.7%,-2.3,-1%,-3.7%,-50%[inhibitor],-10%,-3.9
O=C(OCc1ccccc1)c1ccc(NCc2cc(O)ccc2O)cc1,-1.2%,?,-8%,-4.0%,20%,.,.
Cc1cccc(/C=c2\s/c(=C\C(=O)C(C)(C)C)[nH]c2=O)c1,5.3%,-3.9,-16%[15.4 µM],-1.4%,-45%[inhibitor],-2%,-1.5
Cc1ccc2cccc(OCC(=O)N(C)CC(=O)Nc3ccc(F)cc3)c2n1,-2.0%,-2.5,4%,-23%,19%,.,.
Cc1cccc(C)c1NC(=O)NNC(=O)c1cc(C(C)(C)C)nn1Cc1ccccc1,2.9%,-8.7,-7%,.,-4%[15.4 µM],8%,-1.3
CCOC(=O)N1CCN(C(=O)c2ccc3c(c2)NC(=O)/C(=C/c2ccccc2)S3)CC1,-1.6%,-1.4,-15%,0.7%,-54%[inhibitor],-12%,-3.1
COc1ccc(C(C)C)cc1S(=O)(=O)n1ccnc1C,1.5%,-2.1,0%,-1.0%,6%,10%,0.3
COc1cc(/C=C/C(=O)NCCN2CCOCC2)cc(OC)c1OC,-0.4%,0.0,10%,?,-52%[inhibitor],9%,0.5
O=C(NC(c1ccccc1)c1ccccc1)c1ccccc1,5.2%,1.7,6%,.,4%,.,.
Cc1cc(NC(=S)N(CCN2CCCCC2)Cc2ccco2)ccc1Cl,9.1%,-0.9,6%,-1.0%,-4%[15.4 µM],-70%,?
CCCCn1c(N)c(N(CC)C(=O)C2COc3ccccc3O2)c(=O)[nH]c1=O (centres undefined),0.7%,-6.1,13%,1.1%,-8%,.,.
CC(=O)c1ccc(OCc2cc(C(=O)NCCn3nc(C)cc3C)no2)cc1,1.1%,-4.1,-20%,-0.4%,-35%[inhibitor],10%,.
CCN(CC)c1cc(C)c(C#N)c2nc3ccccc3n12,0.0%,0.2,-2%,-1.0%,9%[15.4 µM],16%,-5.7
CCc1nc(SCC(=O)NCc2ccco2)c2c3c(sc2n1)CCCC3,3.7%,-5.3,12%,0.1%,?,8%,2.4
CN(C)S(=O)(=O)N1CCc2ccc(NC(=O)c3ccc(C(F)(F)F)cc3)cc2C1,0.3%,-3.1,?,0.1%,1%,-2%,-1.2

Already shown: entries from further up.
mol,PINK1 expr mod,D2 agonist,gsp antag,ClpP mod,gsp ag,Sfp inh,Menin MLL FP FL
Cc1ccc(CNC(=O)CCCN2C(=S)NC(C)(C)CC2C)cc1 (centres undefined),-0.1%,0.1,10%,-2.6%,14%[15.4 µM],20%,0.0
COc1ccccc1N1CC(C(=O)OCc2nc(N)nc(Nc3ccccc3)n2)CC1=O (centres undefined),1.0%,-1.5,0%,0.5%,-1%,.,.

The list goes on:
mol,PINK1 expr mod,D2 agonist,gsp antag,ClpP mod,gsp ag,Sfp inh,Menin MLL FP FL
COc1ccc(C(=O)N/C(=C\c2ccc(-c3cccc([N+](=O)[O-])c3)o2)C(=O)NCCCN2CCOCC2)cc1,5.3%,2.4,.,-0.4%,-36%[inhibitor],.,.
CCS(=O)(=O)CCn1c([N+](=O)[O-])cnc1C,0.6%,-4.3,-1%,0.2%,.,8%&13%&25%,4.1
O=C(COc1ccc2ccc(=O)oc2c1)N1CCN(c2ccccc2)CC1,-0.5%,-3.7,-1%,1.1%,7%[15.4 µM],22%,1.0
Cc1cc(C)n(-c2ccc(C(=O)OCC(=O)Nc3ccccc3F)cc2)n1,7.2%,1.6,-7%,-3.1%,12%,.,.
Cc1noc(C)c1CSc1ccc(Br)cc1,-0.2%[38.3 µM],-4.2,5%,-0.6%,-22%,-22%,4.1
CC(Oc1cccc2cccnc12)C(=O)N/N=C/c1ccccc1 (centres undefined),0.5%,-4.6,.,.,7%[15.4 µM],13%,-2.1
O=C(CCNC(=O)c1ccc([N+](=O)[O-])cc1)Nc1cccc(S(=O)(=O)N2CCCCC2)c1,-1.6%,3.3,1%,0.8%,13%,-11%,1.5
O=C(O)CNS(=O)(=O)Cc1ccccc1,0.9%,-6.8,5%,-2.2%,-15%,13%,0.4
O=C(O)CC(c1ccc(Cl)cc1)N1Cc2ccccc2C1=O (centres undefined),2.0%,-3.2,4%,.,-41%[inhibitor],12%,-22
CC(C)CC(c1nnnn1C1CCCC1)N1CCN(C(=O)c2ccco2)CC1 (centres undefined),-4.1%,0.5,-7%,-2.3%,13%,-23%,0.2
COc1ccc(Oc2nc(C)nc3c2oc2ccccc23)cc1,-2.4%,1.8,-4%,0.8%,3%,?,2.7
CS(=O)(=O)Nc1cccc(C2=NN(C(=O)c3cccc([N+](=O)[O-])c3)C(c3cccs3)C2)c1 (centres undefined),0.0%,2.6,?,1.5%,-3%,-10%,-2.6
Cc1ccc(OCc2cc(C(=O)NC3CCc4ccccc43)no2)cn1 (centres undefined),0.5%,-0.7,?,2.1%,-7%,11%,.
CN1C(=O)CSc2ccc(NC(=O)N3CCC(N4CCCCC4)CC3)cc21,.,1.5,3%,-0.7%,-2%,-3%,-0.4
O=C(O)CCC(=O)Nc1ccc(OCC2CCCO2)cc1 (centres undefined),0.8%,0.0,-5%,-2.3%,-2%,13%,-0.1
O=C(N/N=C/c1cccnc1)c1ccc2c(c1)OCCO2,2.6%,-2.2,-6%,-0.5%,-4%,17%,-1.9
Cn1cccc1C(=O)OCC(=O)N1c2ccccc2NC(=O)C1(C)C,2.1%,0.6,4%,0.4%,-65%[inhibitor],10%,0.1
Cc1csc(NC(=O)c2ccccc2[N+](=O)[O-])n1,-1.3%,-4.5,3%,-1.3%,-22%,20%,2.8
Cc1cc(NC(=S)NC(=O)/C=C/c2ccc(S(=O)(=O)N3CCOCC3)cc2)ccc1Br,0.9%,-2.0,5%,.,-27%,14%,1.6
CCC1=NN(C(=O)Cc2ccccc2)C(O)(c2ccncc2)C1 (centres undefined),-0.2%,-1.9,-6%,0.9%,-7%,-10%,-0.5
COc1ccc(N=Nc2cc(C)c(O)c(CN3CCCCC3)c2)cc1,9.8%,-4.5,-9%,.,-4%[15.4 µM],1%,-1.1
CCOC(=O)CNC(=O)c1cccnc1,-2.0%,-1.9,5%,-1.9%,20%,8%,3.3
O=C(CSCC(=O)N1CCCCC1)Nc1nc(-c2ccc(Cl)s2)cs1,0.5%,-4.7,?,-4.5%,7%,-4%,4.5
Cc1cc(OCC(=O)NN2C(=O)c3ccccc3C2=O)ccc1Cl,0.0%,-0.2,5%,-3.2%,?,15%,3.8
C/C(=N\O)C(=O)OC1CC(C)CCC1C(C)C (centres undefined),11%,-1.7,-5%,-1.9%,-6%,-4%,1.5
Cc1nc(-c2cccc(NS(=O)(=O)c3ccc4ccccc4c3)c2)cs1,.,3.4,7%,-8.4%,0%,8%,4.0
O=C(Nc1ccc(Cl)c(C(F)(F)F)c1)[C@@H]1CC=C[C@@H]2CCN(Cc3ccc(Cl)c(Cl)c3)C(=O)[C@@H]21,10%,0.2,-5%,-4.3%&0.7%,.,.,.
CCOC(=O)c1sc2ncn(CC(=O)NCC3CCCO3)c(=O)c2c1C (centres undefined),-1.8%,-3.8,12%,-1.6%,13%,12%,0.8
COc1ccc(CN=CC2=C(O)CNC2=O)cc1,-1.8%,-4.0,-6%,1.3%,?,21%,-1.1
Nc1nc(SCC(=O)NC2CCCC2)[nH]c(=O)c1NC(=O)c1cccs1,0.3%,-0.3,8%,0.1%,-1%,20%,-0.7
O=C(/C=C/[C@H]1O[C@@H](n2ccc(=O)[nH]c2=O)[C@H](O)[C@@H]1O)NCCCc1ccccc1,2.7%,-6.7,.,-2.1%,.,.,.
COc1ccc(/C(O)=C2/C(=O)C(=O)N(c3nc(C)c(C)s3)C2c2ccco2)cc1 (centres undefined),-1.7%,-4.1,-17%,-4.7%,?,-13%,1.6
O=C1C2CC=CCC2C(=O)N1c1ccc(Cc2ccncc2)cc1 (centres undefined),.,6.9,-32%,-1.9%,-22%,19%,4.5

Bioassay records (PubChem BioAssay)
